Assay outcomes from PubChem BioAssay.
NS1 function inh: influenza NS1 inhibition | S. cerevisiae slowed by influenza A NS1, growth recovery by OD600 | Potency, µM (titrated, usually from 46.1 µM), without a hit: top-dose activity, positive = more growth | 270,000 compounds, 0.4% hits | AID 2326; note: actives are rising curves; nearly all actives have a fitted effect of over 50% in size
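A cell-based growth assay was used: compounds that relieve NS1-induced slow growth of budding yeast raise OD600. Assay medium was yeast nitrogen base with ammonium sulphate and -URA supplement, pH 6.0, with 2% galactose.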
Marburg entry inh: Marburg virus entry inhibition | Marburg virus pseudotyped entry inhibition, cell reporter; control for the full effect not named in the record; about a third of the inactives were read at about 46 µM | Potency, µM (doses to about 37.8 µM), inactives show top-dose activity change, negative = inhibition, hits mostly inhibitors | 300,000 compounds, 1.8% hits; active = well fitted inhibition curve with a large enough effect; inconclusive = small, poorly fitted or top-dose-only effect, or effect the other way; inactive = flat fitted curve, though single readings scatter; tested in HEK293 cells; about a fifth of its hits are not listed in these tables; note: % is set by controls: 0 for no effect and ±100 for the full control effect; luciferase read-out
Cruzain inh noDet: blocks cruzain activity in detergent-free assay. purified cruzain, Z-FR-AMC fluorescence, no detergent. Potency, µM, for the others: max response, negative = inhibition, hits mostly inhibitors. 200,000 compounds, 2.3% hits; active = well fitted curve in the direction sought with a large enough effect; inconclusive = small, poorly fitted or top-dose-only effect, or another doubt; inactive = no such curve, though single readings can be large; an effect the other way counts as inactive or inconclusive;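 note: plate controls were enzyme without inhibitor for no effect and buffer without enzyme for full effect; nearly all actives have a fitted effect of over 40% in size; top concentration of the series not given in the record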
Target sequence (P25779 123-467 limits assumed): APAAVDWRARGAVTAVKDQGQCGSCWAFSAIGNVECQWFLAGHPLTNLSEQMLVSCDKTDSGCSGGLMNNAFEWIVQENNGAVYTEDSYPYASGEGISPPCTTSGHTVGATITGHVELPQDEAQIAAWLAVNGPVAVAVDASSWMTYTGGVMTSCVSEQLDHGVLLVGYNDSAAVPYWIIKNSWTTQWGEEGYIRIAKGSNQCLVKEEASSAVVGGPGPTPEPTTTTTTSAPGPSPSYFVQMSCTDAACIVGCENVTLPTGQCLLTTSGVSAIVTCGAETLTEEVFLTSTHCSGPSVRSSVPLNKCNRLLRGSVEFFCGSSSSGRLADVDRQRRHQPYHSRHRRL
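Detergent-free condition (0.00005% Triton X-100) in acetate buffer pH 5.5 with DTT. 1.5 nM enzyme and compound were pre-mixed 15 min, then 2 uM Z-FR-AMC substrate added; reaction progress from fluorescence change between first and third reads (60 s).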
StopGo reporter: lowers the luciferase signal of an FMDV 2A StopGo reporter | human cells with a luciferase reporter of 2A StopGo recoding; control for the full effect not named in the record | Potency, µM (doses to about 57.9 µM), for inactives: top-dose signal change, negative = less light | 410,000 compounds, 1.2% hits; active = well fitted falling curve with a large enough effect; inconclusive = small, poorly fitted or top-dose-only effect; inactive = no such curve, though single readings can be large or run the other way; tested in HEK293T cells; note: % is set by controls: 0 for no effect and ±100 for the full control effect; nearly all actives have a fitted effect of over 45% in size; luciferase light after 4 h
SARS PLpro yeast: SARS-CoV PLP inhibition in yeast | S. cerevisiae expressing SARS-CoV PLpro, growth rescue; control for the full effect not named in the record | Potency, µM (titrated, usually from 32.9 µM), without a hit: at the highest dose activity, positive = growth rescue | 330,000 compounds, 0.19% hits; note: 0% is about no effect; nearly all actives have a fitted effect of over 55% in size; growth read by luminescence after 48 h
Lassa entry inh: inhibitors of Lassa virus binding or cell entry. Potency, µM (series often up to 37.9 µM), inactives show top-dose activity change, negative = inhibition, hits mostly inhibitors. AID 540256. 300,000 compounds, 1.2% hits. Lassa virus pseudotype entry inhibition, cell reporter; control for the full effect not named in the record; active means well fitted inhibition curve with a large enough effect; inconclusive means small, poorly fitted or top-dose-only effect, or effect the other way; inactive means flat fitted curve, though single readings scatter; tested in HEK293 cells; note: % is set by controls: 0 for no effect and ±100 for the full control effect; nearly all actives have a fitted effect of over 50% in size; luciferase read-out
RE007 growth inh: less growth of the S. pombe RE007 Vpr strain; S. pombe RE007 Vpr strain, BacTiter-Glo ATP luminescence, 24 h; control for the full effect not named in the record; Potency, µM (series often up to 92.2 µM), for inactives: at the top dose activity change, negative = less growth; 360,000 compounds, 0.21% hits; AID 651644; active = well fitted falling curve with a large enough effect; inconclusive = small, poorly fitted or top-dose-only effect; inactive = no such curve, though single readings can be large or run the other way;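 note: % is set by controls: 0 for no effect and ±100 for the full control effect; nearly all actives have a fitted effect of over 50% in size; the assay follows cell death caused by Vpr and the record does not say whether a fall means rescue or toxicity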
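Fission yeast strain RE007, carrying one chromosomally integrated HIV-1 vpr copy, was seeded at OD 0.01 in PMG+AL medium with 23 nL pinned compound. After 24 h at 30 °C and 99% humidity, viability was read by BacTiter-Glo luminescence.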
Cruzain inh Det: blocks cruzain activity in presence of Triton detergent | P25779 | purified cruzain, Z-FR-AMC fluorescence, 0.01% Triton | Potency, µM, inactives show max response, negative = inhibition, hits mostly inhibitors | 200,000 compounds, 0.43% hits | AID 1478; active = well fitted curve in the direction sought with a large enough effect; inconclusive = small, poorly fitted or top-dose-only effect, or another doubt; inactive = no such curve, though single readings can be large; an effect the other way counts as inactive or inconclusive;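 note: plate controls were neutral wells for no effect and buffer without enzyme for full effect; nearly all actives have a fitted effect of over 40% in size; top concentration of the series not given in the record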
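Purified cruzain (1.5 nM final) was preincubated with compounds for 15 min at room temperature in 100 mM sodium acetate pH 5.5, 5 mM DTT, 0.01% Triton X-100. Reaction started with 2 uM Z-FR-AMC; AMC fluorescence change over 60 s gave activity.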
Numbers without * were called inactive; ? = inconclusive; / = not tested or not shown; & = joins results of further samples; [ ] = dose if it differs, or a comment. Unless noted, calls come from the whole dose curve; as a rule, active means well fitted rising curve with a large enough effect; inconclusive means small, poorly fitted or top-dose-only effect; inactive means no such curve, though single readings can be large or run the other way. Potency is the fitted concentration of half-maximal effect. Rows are unselected (roughly 4.5% active in at least one column).

SMILES	NS1 function inh	Marburg entry inh	Cruzain inh noDet	StopGo reporter	SARS PLpro yeast	Lassa entry inh	RE007 growth inh	Cruzain inh Det
Cc1cc(C)nc(N/N=C/C2=C(O)CC(c3ccc(F)cc3)CC2=O)n1 (configuration not stated)	-0.2%	/	/	4.9%	2.8%	/	0.6%	/
CC1(c2ccc(Cl)cc2)NC(=O)N(CC(=O)N2CCCC2)C1=O (configuration not stated)	?	13.1%	-19.1%	-19.6%	5.1%	0.6%	-15.0%	5.0%
CC(C)n1c(SCC(=O)Nc2ccccc2)nc2c1c(=O)[nH]c(=O)n2C	1.7%	2.0%	/	-11.1%	-0.3%	4.8%	-7.6%	/
CC1CCCC(C)N1C(=O)c1cc(-c2ccco2)on1 (configuration not stated)	-10.3%	-5.3%[46.1 µM]	/	23.8%	-4.8%	18.9%	11.6%	/
CCOC(=O)CC(=O)CSc1ccc2nnc(-c3cccc(F)c3)n2n1	25.4%	1.6%	-3.2%	-9.4%	-6.5%	-23.4%	-1.7%	-2.1%
O=C(CCn1nc(-c2ccc(Cl)cc2)ccc1=O)N1CCC2(CC1)OCCO2	/	-5.2%[46.1 µM]	/	-5.6%	-3.1%	-3.7%[46.1 µM]	9.0%	/
Cc1ccc(OCC(=O)N2CCN(CC3CC4C=CC3C4)CC2)cc1 (configuration not stated)	3.2%	-3.8%	-6.0%	?	-3.5%	-20.0%	-6.2%	3.3%
CCOC(=O)c1cccc(NC(=O)Cn2c(CC(=O)N3CCCC3)nc3ccccc32)c1	-9.9%	0.5%	?	/	3.1%	/	/	-4.1%
CC(C)CNC(=O)c1cc2nc(C3CC3)cc(C(F)(F)F)n2n1	/	-6.7%	/	12.8%	/	-0.6%	-3.5%	/
Nc1nnc(-c2cccc([N+](=O)[O-])c2)s1	-3.8%	?	/	6.7%	-1.5%	0.2%	14.0%	/
O=C(CN(Cc1cccs1)C(=O)CNS(=O)(=O)c1ccc(Cl)cc1)NCC1CCCO1 (configuration not stated)	-3.2%	0.4%[46.1 µM]	/	8.1%	0.6%	?	8.6%	/
CCOC(=O)c1cnn(-c2cc(Oc3ccccc3)ncn2)c1N	-6.8%	-0.4%	?	37.5%	6.7%	0.1%	-11.2%	8.3%
CCCn1cnnc1CNC(=O)C1CCC(=O)N(CCc2ccc(OC)cc2)C1 (configuration not stated)	-16.3%	-3.8%[46.1 µM]	/	-6.8%	-0.8%	3.6%[46.1 µM]	-8.3%	/
CC(=O)NCCc1nc2cc(NS(=O)(=O)c3ccccc3)ccc2n1C	1.7%	8.7%	/	7.0%	-0.6%	-30.0%	-10.2%	/
COc1ccc(S(=O)(=O)N2CCC(C(=O)N[C@H](C(=O)NCc3ccncc3)C(C)C)CC2)cc1	-9.5%	0.5%[46.1 µM]	/	-3.3%	-1.3%	17.2%[46.1 µM]	12.3%	/
CC(C)COc1ccc(C(=O)N(Cc2ccc(N(C)C)cc2)Cc2ccco2)cc1	/	9.6%[46.1 µM]	-17.7%	-29.0%	/	-24.6%[46.1 µM]	/	-11.6%
Cc1cccn2c(=O)c3cc(C(=O)NCCc4ccccc4)c(=N)n(CCCn4ccnc4)c3nc12	0.1%	?	?	-28.1%	-2.5%	-3.5%	-8.4%	0.2%
O=C(Nc1ccccn1)C1CCN(C(=O)Nc2ccccc2)CC1	/	-12.2%	/	3.5%	-1.9%	15.5%	-9.6%	/
Cn1c(=O)[nH]c(=O)c2c1nc(SCCN1CCCCC1)n2CCCc1ccccc1	-12.9%	-0.4%[46.1 µM]	-5.5%	-15.8%	11.5%	6.7%	0.6%	-4.1%
CCn1c2ccccc2c2cc(NC(=O)COC(=O)c3ccccc3Br)ccc21	-5.7%	-18.4%	?	-7.0%	12.2%	-10.0%	-14.9%	-2.7%
COc1ccc(CCN2C(=O)CC(NNC(=O)c3cccc(O)c3)C2=O)cc1 (configuration not stated)	23.7%	-0.1%	-5.3%	-12.6%	6.7%	-15.8%	0.0%	-1.8%
CC1CCCCN1C(=O)c1ccc(S(=O)(=O)N2CCCCC2C)cc1 (configuration not stated)	-12.7%	4.7%	-1.3%	-20.1%	0.5%	10.3%	2.0%	2.2%
CN(C)C(=O)N1CCC(C(=O)N2CCCC(C(=O)c3cccc4ccccc34)C2)CC1 (configuration not stated)	-6.9%	?	/	-13.9%	-1.1%	?	4.2%	/
CCCC1OC23CCCCC2C(C#N)(C(=N)O3)C1(C#N)C#N (configuration not stated)	-5.7%	0.1%	-11.0%	-7.9%	5.8%	4.3%	-1.8%	1.0%
CCOC(=O)c1cccc(NS(=O)(=O)c2cc(Br)cc3c2N(C(=O)C2CC2)CC3)c1	/	?	-13.2%	?	/	-23.3%[46.1 µM]	/	-1.9%
O=C(COC(=O)/C=C/c1ccc(C(F)(F)F)cc1)NCCC1=CCCCC1	7.1%	-8.2%[46.1 µM]	/	-11.4%	0.0%	?	8.5%	/
O=C1CC(Cc2ccc(Cl)cc2)C(=O)N1c1ccccn1 (configuration not stated)	16.9%	-14.5%[46.1 µM]	5.4%	0.8%	-3.0%	0.5%	20.3%	-5.6%
COc1ccc(C(CNC(=O)c2ccc3c(c2)CCC3)N(C)C)cc1 (configuration not stated)	-6.0%	?	/	0.1%	-5.8%	-10.0%[46.1 µM]	4.4%	/
Cc1cccc(C(=O)Nc2cc(C)ccc2NC(=O)COc2ccccc2)c1	-6.1%	-5.8%	1.6%	-8.9%	6.0%	-0.7%	19.4%	-3.2%
CC(=O)N1CCN(C2=NC(=O)/C(=C/c3ccc(OS(=O)(=O)c4ccccc4)cc3)S2)CC1	21.7%	/	/	-14.5%	16.9%	/	-8.5%	/
CCC(C)C(NS(=O)(=O)c1ccc(C)cc1)C(=O)O (configuration not stated)	/	25.8%[46.1 µM]	/	-9.3%	-2.7%	-7.7%[46.1 µM]	3.0%	/
COc1ccc(CCNC(=O)C2CCC(=O)N2S(=O)(=O)c2ccc(C)cc2)cc1 (configuration not stated)	6.1%	/	/	8.0%	10.5%	/	12.9%	/
COc1ccccc1C(=O)Nc1c(C(=O)N2CCN(C)CC2)oc2ccccc12	-23.4%	/	/	-7.1%	-8.9%	/	-2.1%	/
CC1Cc2cc(S(=O)(=O)N3CCN(c4cccc(Cl)c4)CC3)ccc2N1C(=O)C1CC1 (configuration not stated)	14.0%	-18.4%[46.1 µM]	/	-7.4%	-9.5%	?	11.0%	/
CC(=O)C1(c2ccccc2)CCNCC1	7.1%	4.8%&4.8%	-5.6%	-0.4%	2.8%	7.0%	-5.4%	4.1%
CCOc1ccc(NC(=O)CSc2nnc(-c3ccco3)n2N)cc1	6.1%	/	/	14.2%	1.5%	/	-0.5%	/
Cc1cc(C)c2c(-n3cccc3)c(NC(=O)OC(C)C)sc2n1	4.5%	?	2.9%	?	4.7%	-25.4%	-3.6%	-4.2%
CC(C)(C)n1nc2c(c1NC(=O)c1ccc(Br)cc1)CS(=O)C2 (configuration not stated)	11.5%	/	-8.5%	-13.4%	8.2%	/	-1.2%	2.0%
COC(=O)c1sccc1NC(=O)c1cc(-c2cc(C)ccc2C)nc2ccccc12	6.4%	-29.1%	?	-3.7%	2.6%	-1.5%	2.9%	-2.0%
CC(=O)c1cccc(CN2CCC(CO)(CCCc3ccccc3)CC2)c1	4.7%	/	/	0.2%	0.5%	/	-25.0%	/
CCc1cccc(NC(=O)Cn2c(-c3ccccc3)cc(C(C)=O)c2C)c1	12.7%	-32.0%	-2.3%	-23.5%	13.3%	?	-3.4%	-5.5%
CC1CCCC(C)N1C(=S)NCc1ccco1 (configuration not stated)	4.2%	?	/	-11.1%	0.6%	26.2%	9.9%	/
Cc1ccc2nc(-c3ccc(Cl)s3)c(Nc3ccc4c(c3)OCCO4)n2c1	/	?	-2.7%	48.5%[activator]	/	?	/	-1.4%
CCOC(=O)c1ccc(N2C(=O)C3CC=CCC3C2=O)cc1 (configuration not stated)	6.3%	23.5%	-1.8%	/	-4.9%	6.8%	18.1%	4.1%
Cn1c(CCN2CCCCCC2)nc2cc(NC(=O)Nc3ccccc3)ccc21	7.2%	?	?	27.6%	7.2%	-35.5%	-2.6%	-29.9%
CCC(=O)N/C(N)=N/c1nc2ccccc2o1	-43.8%	?	/	37.7%[activator]	-2.5%	?	-1.4%	/
O=C(NNS(=O)(=O)c1ccccc1)c1ccc(S(=O)(=O)N2CCCCC2)cc1	-6.8%	-25.0%	-2.2%	-10.1%	16.4%	22.3%	18.4%	-0.5%
Cc1ccc(Nc2ccc(C(=O)NCCc3ccccc3)cn2)cc1	5.3%	10.9%	12.9%	9.9%	-1.6%	-18.3%	-9.3%	-7.6%
CCCc1cc(C(=O)N2CCCC(Cc3ccccc3C)(C(=O)OCC)C2)no1 (configuration not stated)	-46.9%	?	/	-8.8%	-4.6%	?	4.5%	/
Cc1ccc(NS(=O)(=O)c2cccc(C(=O)NCC(c3cccs3)N(C)C)c2)cc1 (configuration not stated)	/	?	/	9.9%	-5.7%	?	-5.1%	/
Cc1ccc(Cn2ncn(-c3ccccc3)c2=O)cc1	1.8%	1.8%[46.1 µM]	/	51.6%[activator]	-1.2%	2.4%	-15.1%	/
COc1cccc(C2CC(=O)C3=C(C2)Nc2ccccc2N(C(=O)CCC(=O)O)C3c2ccc(F)cc2)c1 (configuration not stated)	9.5%	6.6%[46.1 µM]	/	3.7%	2.2%	-11.8%	-7.6%	/
CN(C)CC#CCC(O)(c1ccccc1)C1CCCC1 (configuration not stated)	4.9%	?	4.3%	-28.4%	1.8%	5.5%	-7.1%	6.2%
Cn1c(-c2sc(=S)n(-c3ccccc3)c2N)nc2ccccc21	5.9%	3.2%[46.1 µM]	5.7%	1.6%	-6.1%	1.5%	-15.4%	-4.6%
Cn1nc(NC(=O)C(C)(C)C)c2c(F)cccc21	0.9%	?	/	-8.6%	1.1%	22.5%[46.1 µM]	-1.0%	/
